Vaccinia mCherry: inhibitors of vaccinia virus infection (mCherry reporter signal) | AID 720579 | Vaccinia virus mCherry reporter infection, fluorescence; about a quarter of the inactives have no number | Potency, µM (doses to about 36.5 µM), inactives show top-dose activity change, negative = inhibition, most hits filed as inhibitors | 310,000 compounds, 0.63% hits; active = well fitted inhibition curve with a large enough effect; inconclusive = small, poorly fitted or top-dose-only effect; inactive = no such curve, though single readings can be large or run the other way; tested in A549 cells; also: nearly all actives have a fitted effect of over 35% in size; inactives centre near -10
VACV Venus inh: vaccinia inhibition (Venus reporter). Potency, µM (highest dose often 36.5 µM), for the others: at the highest dose activity change, negative = inhibition, hits mostly inhibitors. Vaccinia virus Venus reporter expression, fluorescence. 330,000 compounds, 0.46% hits; active means well fitted inhibition curve with a large enough effect; inconclusive means small, poorly fitted or top-dose-only effect; inactive means no such curve, though single readings can be large or run the other way; tested in A549 cells; also: nearly all actives have a fitted effect of over 30% in size; inactives centre near -10
An asterisk follows results filed as active; & = joins results of further samples; [ ] = dose if it differs, or a comment. % is scaled to controls: 0 for no effect and ±100 for the full control effect; potency is read from the fitted curve at half-maximal effect. Outcome played no part in choosing rows; 0.87% or so of the library scored in one or more.

What do the screens show for `C=CC[C@@H](Cc1ccc(F)cc1)C(=O)OC[C@@H]1CCCN1C(=O)[C@@H](CC=C)CC(=O)N[C@H](CO)Cc1ccccc1`?
Vaccinia mCherry: -25%; VACV Venus inh: inconclusive

What do the screens show for `COC(=O)[C@@H](NC(=O)N1CCC(C)CC1)C(C)C`?
Vaccinia mCherry: inactive; VACV Venus inh: 2%

How did O=C(Cn1c(Cc2ccccc2)nc2ccccc21)NCc1ccc2c(c1)OCO2 do in these assays?
Vaccinia mCherry: -4%; VACV Venus inh: -2%

What do the screens show for `O=C(COc1ccc(Cl)cc1)NCCN1CCCCC1`?
Vaccinia mCherry: inactive; VACV Venus inh: 8%

How did COc1cc(OC)cc(C(=O)Nc2ccc([N+](=O)[O-])cn2)c1 do in these assays?
Vaccinia mCherry: -13%; VACV Venus inh: -12%

How did COc1ccccc1-c1nc(NC(C)=O)n[nH]1 do in these assays?
VACV Venus inh: 6%

Results for Cc1ccc(-c2cc(C(=O)Nc3nccs3)c3ccccc3n2)c(C)c1 ?
Vaccinia mCherry: inactive; VACV Venus inh: -16%

How did COC(=O)c1c(-c2cccs2)csc1NC(=O)COc1ccc(C(C)(C)C)cc1 do in these assays?
Vaccinia mCherry: -4%; VACV Venus inh: -8%

Results for CC(C)Cn1c(=O)c2ccccc2n2c(CCC(=O)Nc3ccc(F)cc3)nnc12 ?
Vaccinia mCherry: -7%; VACV Venus inh: -23%

Results for COC(=O)C(C(=O)Nc1cc(C)on1)C1CCCCCC1 (configuration not stated) ?
VACV Venus inh: -13%

Results for Cc1ccc(CSCCC(=O)NCCc2ccc(Cl)cc2)cc1 ?
Vaccinia mCherry: -14%; VACV Venus inh: -14%

What do the screens show for `Clc1ccc(CN2CCN(/N=C/c3ccco3)CC2)cc1`?
Vaccinia mCherry: -7%; VACV Venus inh: -6%

Results for CN(CCc1ccccc1)C(C(=O)Nc1ccc2c(c1)OCCO2)c1ccnc2ccccc12 (configuration not stated) ?
Vaccinia mCherry: inactive; VACV Venus inh: -14%

Results for O=C(CNc1ccccc1)N/N=C/c1cc([N+](=O)[O-])ccc1N1CCCC1 ?
VACV Venus inh: -2%

How did COc1cc(OC)c(NC(=O)Cc2ccc(-n3c(C)nc4cccnc43)cc2)cc1Cl do in these assays?
Vaccinia mCherry: -3%; VACV Venus inh: -6%

How did O=C1CC2(CCCCC2)Oc2ccc(Cl)cc21 do in these assays?
Vaccinia mCherry: -16%; VACV Venus inh: -20%

Results for C/C(=N\NC(=O)c1nnn(-c2nonc2N)c1CN1CCC(C)CC1)c1ccc(Br)cc1 ?
Vaccinia mCherry: -8%; VACV Venus inh: -19%

How did CCOC(=O)Cn1c(=O)cc(C(F)(F)C(F)(F)F)c2c(C)nn(CC)c21 do in these assays?
Vaccinia mCherry: -9%; VACV Venus inh: -3%

Results for NC(=O)c1ncn([C@@H]2O[C@H](CNCc3ccc(-c4cc(C(F)(F)F)ccc4Cl)o3)[C@@H](O)[C@H]2O)n1 ?
Vaccinia mCherry: inactive; VACV Venus inh: 0%

How did O=C(Nc1ccc(N2CCCC2=O)cc1)c1cncc(Br)c1 do in these assays?
Vaccinia mCherry: inactive; VACV Venus inh: -10%

Brought forward from above: three entries, followed by the next part.
How did CCOC(=O)Cn1c(=O)cc(C(F)(F)C(F)(F)F)c2c(C)nn(CC)c21 do in these assays?
Vaccinia mCherry: -9%; VACV Venus inh: -3%

Results for NC(=O)c1ncn([C@@H]2O[C@H](CNCc3ccc(-c4cc(C(F)(F)F)ccc4Cl)o3)[C@@H](O)[C@H]2O)n1 ?
Vaccinia mCherry: inactive; VACV Venus inh: 0%

How did O=C(Nc1ccc(N2CCCC2=O)cc1)c1cncc(Br)c1 do in these assays?
Vaccinia mCherry: inactive; VACV Venus inh: -10%

What do the screens show for `COc1ccc(C(=O)c2c[nH]c(C(=O)N=CN(C)C)c2)cc1`?
Vaccinia mCherry: -16%; VACV Venus inh: -7%

How did Cc1cccc(C(=O)Nc2ccc(C(=O)Nc3ccc(O)cc3)cc2)c1 do in these assays?
Vaccinia mCherry: -16%; VACV Venus inh: -16%

What do the screens show for `O=C(Cn1cnc2c(nnn2-c2cccc(Cl)c2)c1=O)N1CCOCC1`?
Vaccinia mCherry: inactive; VACV Venus inh: -20%

How did Cc1nc2ccc(S(=O)(=O)N(C)CC(=O)N3CCc4ccccc43)cc2s1 do in these assays?
Vaccinia mCherry: -20%; VACV Venus inh: -12%

How did COc1ccc(CN2CCC(=O)N([C@H](CO)CC(C)C)CC2)cc1OC do in these assays?
Vaccinia mCherry: -1%; VACV Venus inh: -6%&-18%

Results for c1ccc2oc(SCc3nc4ccccc4s3)nc2c1 ?
Vaccinia mCherry: -15%[1.46 µM]; VACV Venus inh: -25%

What do the screens show for `COC(=O)C(Cc1ccc(O)cc1)NC(=O)Cn1cc(C)c(=O)[nH]c1=O` (configuration not stated)?
Vaccinia mCherry: inactive; VACV Venus inh: 9%

What do the screens show for `CC(Sc1nncs1)C(=O)Nc1ccc2c(c1)OCCO2` (configuration not stated)?
Vaccinia mCherry: -6%; VACV Venus inh: -10%

How did C=C(C(=O)c1ccccc1)C(CC(=O)c1ccccc1)c1ccccc1 (configuration not stated) do in these assays?
Vaccinia mCherry: 13µM*; VACV Venus inh: inconclusive

How did CCCCCC(=O)Nc1ccc(N2CCN(C(=O)c3ccccc3)CC2)cc1 do in these assays?
VACV Venus inh: -28%

What do the screens show for `O=C(NCc1ccco1)c1cnn2c(C(F)F)cc(-c3ccccc3)nc12`?
VACV Venus inh: -14%

Results for O=C(NCC(c1cccs1)S(=O)(=O)c1cccs1)c1cccc(F)c1 (configuration not stated) ?
Vaccinia mCherry: -2%; VACV Venus inh: -7%

Results for CCOc1ccc(S(=O)(=O)NCCC(=O)OCC(=O)c2ccc(NC(C)=O)cc2)cc1 ?
Vaccinia mCherry: -18%; VACV Venus inh: -10%

What do the screens show for `COc1ccc(S(=O)(=O)N(C)c2ccc(C(=O)N3CCC(C(N)=O)CC3)cc2)cc1OC`?
Vaccinia mCherry: inactive; VACV Venus inh: -5%

What do the screens show for `Cc1ccc(C(=O)NCc2ccc(N(C)C)cc2)cc1NC(=O)c1nsc2ccccc12`?
Vaccinia mCherry: -14%; VACV Venus inh: -16%

Results for CC1(C(=O)Nc2ccc(F)cc2F)CCN1C(=O)CCC1CCCC1 (configuration not stated) ?
Vaccinia mCherry: 33%[activator]; VACV Venus inh: 6%

How did Cc1ccc(C(CNC(=O)C(=O)Nc2ccc3c(c2)OCCO3)N2CCN(C)CC2)cc1 (configuration not stated) do in these assays?
Vaccinia mCherry: inactive; VACV Venus inh: -18%

How did NNC(=O)C(=O)NCCCN1CCOCC1 do in these assays?
Vaccinia mCherry: inactive; VACV Venus inh: -17%

Results for CC(=O)c1ccc(NC(=O)c2cc(-c3ccc4c(c3)OCO4)on2)cc1 ?
Vaccinia mCherry: 13%; VACV Venus inh: -6%

Results for CCOC(=O)c1nn(-c2ccc(OCC)cc2)c2nc(-c3ccco3)c(C#N)c(=O)n12 ?
Vaccinia mCherry: -2%; VACV Venus inh: -1%

What do the screens show for `OCc1nc2nc(Cl)c(Cl)nc2[nH]1`?
Vaccinia mCherry: inactive; VACV Venus inh: 4%

How did CNc1ncnc2sc(-c3ccccc3)cc12 do in these assays?
Vaccinia mCherry: -2%; VACV Venus inh: -17%

Results for Cn1cnnc1SCC(=O)NCc1ccccc1 ?
Vaccinia mCherry: -2%; VACV Venus inh: -7%

How did COc1ccc(-c2noc(CCC(=O)N3CCN(c4ccc(F)cc4)CC3)n2)cc1 do in these assays?
Vaccinia mCherry: inactive; VACV Venus inh: -18%

What do the screens show for `COCCCNC(=S)NCCNc1nc2cc(C)cc(C)c2cc1C#N`?
Vaccinia mCherry: inconclusive; VACV Venus inh: inconclusive

How did O=[N+]([O-])c1cc(/C=N/N/C(=N/c2ccccn2)c2ccccn2)ccc1O do in these assays?
Vaccinia mCherry: inconclusive; VACV Venus inh: inconclusive

Results for O=C(NCc1ccc(Cl)cc1)N1CCOCC1 ?
Vaccinia mCherry: -3%; VACV Venus inh: -13%

Results for CCOC(=O)c1ccc(NC(=O)C2CCN(S(=O)(=O)c3ccc4c(c3)CCCC(=O)N4)CC2)cc1 ?
Vaccinia mCherry: 5%; VACV Venus inh: 6%

How did CCCNc1c(NC(=O)C2CCC(C)CC2)c(=O)oc2ccccc12 (configuration not stated) do in these assays?
Vaccinia mCherry: inactive[7.34 µM]; VACV Venus inh: -13%[7.34 µM]

Results for COc1ccc(CCNC(=O)Cn2c(=O)c3cccn3c3ccc(F)cc32)c(OC)c1 ?
Vaccinia mCherry: -4%; VACV Venus inh: -15%

Six compounds picked at random from those above:
How did C=C(C(=O)c1ccccc1)C(CC(=O)c1ccccc1)c1ccccc1 (configuration not stated) do in these assays?
Vaccinia mCherry: 13µM*; VACV Venus inh: inconclusive

Results for CC(=O)c1ccc(NC(=O)c2cc(-c3ccc4c(c3)OCO4)on2)cc1 ?
Vaccinia mCherry: 13%; VACV Venus inh: -6%

What do the screens show for `COc1ccc(S(=O)(=O)N(C)c2ccc(C(=O)N3CCC(C(N)=O)CC3)cc2)cc1OC`?
Vaccinia mCherry: inactive; VACV Venus inh: -5%

How did COc1ccccc1-c1nc(NC(C)=O)n[nH]1 do in these assays?
VACV Venus inh: 6%

Results for Cc1ccc(CSCCC(=O)NCCc2ccc(Cl)cc2)cc1 ?
Vaccinia mCherry: -14%; VACV Venus inh: -14%

How did COc1ccc(-c2noc(CCC(=O)N3CCN(c4ccc(F)cc4)CC3)n2)cc1 do in these assays?
Vaccinia mCherry: inactive; VACV Venus inh: -18%

Next section
Results for Cc1ccc(S(=O)(=O)c2nnn3c2nc(NC(C)C)c2sccc23)cc1 ?
Vaccinia mCherry: inconclusive; VACV Venus inh: -26%

How did CCN(CC(=O)NCc1ccc(Cl)cc1)C(=O)COc1ccc(Cl)cc1Br do in these assays?
Vaccinia mCherry: -7%; VACV Venus inh: -21%

How did COc1ccc(NC(=O)CSc2nc3ccccc3nc2N2CCCC2)cc1 do in these assays?
Vaccinia mCherry: inactive; VACV Venus inh: -9%

How did CC(C)NC(=O)c1cc(C2CCCCN2C(=O)c2ccc(C#N)cc2)on1 (configuration not stated) do in these assays?
Vaccinia mCherry: 0%; VACV Venus inh: 5%

Results for CCOc1ccc(CSC2=NCCN2)cc1[N+](=O)[O-] ?
Vaccinia mCherry: -13%; VACV Venus inh: inconclusive

What do the screens show for `COc1ccccc1CNC(=O)CCn1c(=O)c2ccccc2n(CC(=O)Nc2cc(Cl)ccc2C)c1=O`?
Vaccinia mCherry: -5%; VACV Venus inh: -2%

What do the screens show for `COc1ccc(NC(=O)CS(=O)c2ccc(F)cc2)cc1` (configuration not stated)?
Vaccinia mCherry: -15%; VACV Venus inh: -1%

Results for COc1ccc(CNC(=O)[C@H](Cc2c[nH]c3ccccc23)NC(C)=O)cc1OC ?
Vaccinia mCherry: -7%; VACV Venus inh: -1%

What do the screens show for `Cc1ccccc1OC(C)C(=O)NCc1cccnc1` (configuration not stated)?
Vaccinia mCherry: -16%; VACV Venus inh: -19%

What do the screens show for `ClCCCc1cn(C[C@H]2CC[C@@H]([C@@H]3CC[C@H](Cn4cc(CCCCl)nn4)O3)O2)nn1`?
Vaccinia mCherry: inactive; VACV Venus inh: -13%

Results for O=C(CCc1ccccc1)NNc1cc(N2CCCCC2)nc(N2CCCCC2)n1 ?
Vaccinia mCherry: inactive; VACV Venus inh: -5%

How did COc1ccccc1CCNC(=O)Cn1c(=O)oc2ccccc21 do in these assays?
Vaccinia mCherry: -17%; VACV Venus inh: -4%

How did O=C(CCN1C(=O)C2C3CCC(C3)C2C1=O)Nc1ccc([N+](=O)[O-])cc1 (configuration not stated) do in these assays?
Vaccinia mCherry: inactive; VACV Venus inh: -2%

What do the screens show for `O=C(COc1ccc(F)c(Cl)c1)NC(=O)NC1CCCC1`?
Vaccinia mCherry: -4%; VACV Venus inh: -14%

What do the screens show for `O=S(=O)(Nc1ccccc1N1CCCCC1)c1ccc(Cl)s1`?
Vaccinia mCherry: -12%; VACV Venus inh: -13%
